Screening data: PubChem, National Center for Advancing Translational Sciences (NCATS)
AmpC nodet inh = blocks E. coli AmpC beta-lactamase in absence of detergent; Potency, µM (titrated, usually from 28.7 µM), inactives show at the top dose activity change, negative = inhibition; AmpC nitrocefin hydrolysis, absorbance 480 nm, no detergent; potencies from a single point are estimates; AID 585; P00811; actives 1.8% (n = 71,000); active = falling curve, for most hits resting on a single point; inconclusive = weak or doubtful change; inactive = flat or rising curve; note: % of control where 0% means no effect; about half of the hits show no inhibition at the top dose; a quarter of the inactives give rising signals
Target sequence (P00811 whole entry, looked up): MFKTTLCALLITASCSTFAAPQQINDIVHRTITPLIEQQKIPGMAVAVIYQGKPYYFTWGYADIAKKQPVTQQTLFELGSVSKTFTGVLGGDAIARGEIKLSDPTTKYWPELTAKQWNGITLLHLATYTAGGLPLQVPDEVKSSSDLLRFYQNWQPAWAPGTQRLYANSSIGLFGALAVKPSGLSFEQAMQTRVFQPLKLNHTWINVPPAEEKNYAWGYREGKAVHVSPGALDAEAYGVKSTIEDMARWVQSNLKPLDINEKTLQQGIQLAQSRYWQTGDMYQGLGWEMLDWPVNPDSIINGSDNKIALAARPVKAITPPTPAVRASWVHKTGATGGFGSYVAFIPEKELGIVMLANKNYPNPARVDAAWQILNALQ
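AmpC, 20 mM phosphate pH 7.0; 15 min cpd preinc, RT; start with nitrocefin (800 uM stock); A480 kinetic read, 20 s intervals, 4 min. No-enzyme wells = negative control.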
* = called active by the depositor; ? = inconclusive; & = joins results of further samples; [ ] = remark or other dose. Potency is the fitted concentration of half-maximal effect. This is a subset, so the mix of outcomes need not match the whole.

No.	Molecule	AmpC nodet inh
1	COc1ccc(N(CC(=O)Nc2ccc3c(c2)OCCO3)S(=O)(=O)c2c(C)nn(C)c2C)cc1	104%
2	Cc1ccc(-c2csc3ncnc(OCC(=O)NC(=O)NCc4ccco4)c23)cc1	30%
3	c1ccc(-n2ncc3c(N4CCN(c5ccccn5)CC4)nc(N4CCOCC4)nc32)cc1	24%
4	COc1ccc(C2(C(F)(F)F)NC(=O)N(C)C(=O)N2C)cc1 (centres undefined)	-10%
5	COc1ccc(NC(=O)NCCCN2CCCCC2C)cc1 (centres undefined)	-7%
6	O=C(Nc1cc(N2CCOCC2)ncn1)c1ccccc1	1%
7	COc1cccc(C2C(C#N)=C(N)Oc3cc(C)oc(=O)c32)c1OC (centres undefined)	10%
8	CC1CCCC(NC(=O)CCn2c(=O)oc3ccccc32)C1C (centres undefined)	24%
9	CCOc1ccc(NC(=O)c2ccccc2O)cc1	-18%
10	COc1ccc(-n2c(Cc3cc(=O)[nH]c(=O)[nH]3)nnc2SCC(=O)N2CCCC2)cc1	4µM*[single pt active]
11	COCCOC(=O)C1=C(C)Nc2nc(C)nn2C1c1ccc(F)cc1 (centres undefined)	11%
12	CN1CCCCc2c1[nH]c1ccccc1c2=O	-9%
13	COCCCn1c(SCC(=O)Nc2ccc3c(c2)OCCO3)nnc1-c1ccoc1C	10%
14	O=c1c(O)c(-c2ccc(O)cc2O)oc2cc(O)cc(O)c12	?
15	O=C(Cn1cnc2ccccc21)NCc1ccccc1	28%
16	O=C(COc1ccccc1)N1CCN=C1c1ccccc1	8%
17	O=C(CSc1nnc(C2COc3ccccc3O2)o1)N1CCCc2ccccc21 (centres undefined)	15%
18	CCOC(=O)COc1ccc(S(=O)(=O)NCc2cccnc2)cc1	9%
19	c1ccc(CNc2nc3ccccc3[nH]2)cc1	?
20	O=C(C1CCN(S(=O)(=O)c2cccc3nsnc23)CC1)N1CCn2c1nc1ccccc12	69%
21	COc1ccc(OCCCC(=O)Nc2ccc3c(c2)OCO3)cc1	-8%
22	COc1cccc2cc(C(=O)N3CCN(c4ccc(C)cc4C)CC3)c(=O)oc12	11%
23	Cn1c(=O)c2c(nc(SCCN3CCOCC3)n2Cc2cccc3ccccc23)n(C)c1=O	132%
24	Cc1cccc(N(C(=O)Nc2ccccc2)C2=NCC(C)S2)c1 (centres undefined)	-6%
25	Cc1nnc2ccc(N3CCC(C(N)=O)(N4CCCCC4)CC3)nn12	4µM*[single pt active]
26	COc1ccc(OCC(O)CN2CCCCC2)cc1 (centres undefined)	4µM*[single pt active]
27	CCOCCOC(=O)c1[nH]c2c(c1C)C(=O)CC(c1ccc(N(C)C)cc1)C2 (centres undefined)	100%
28	O=C(NCC(=O)N(Cc1ccco1)C(C(=O)NC1CCCCC1)c1cccnc1)c1ccco1 (centres undefined)	7%
29	CCN(CC)c1ccc2c(C)cc(=O)oc2c1	6%
30	COc1cc(C2c3sc(=O)[nH]c3SC3C4CCC(C4)C23)ccc1O (centres undefined)	?
31	COc1ccccc1CNc1ncnc2ccc(-c3ccccc3CN(C)C)cc12	73%
32	O=C1CCCC2=C1C1(CCCCC1)N=C(Nc1nc3ccccc3s1)N2	10%
33	Cc1ccccc1-n1nc(C)c2cc(C(=O)N3CCOCC3)sc21	22%
34	CC1Cc2ccccc2N1C(=O)CN1CCc2ccccc2C1 (centres undefined)	17%
35	Cc1ccc(S(=O)(=O)N2CCN(C(=O)CCC(=O)OCC(=O)Nc3cccc(C#N)c3)CC2)cc1	100%
36	CCCCN(CC)CCCNC(=O)c1cc2c(=O)n(C)c3ccccc3c2n1C	21%
37	c1cncc(-c2nc(N3CCCCCC3)c3ccccc3n2)c1	97%
38	Cc1cc(C)n2nc(SCC(=O)N3CCC4(CC3)OCCO4)nc2n1	-8%
39	N[C@H](C(=O)O)c1cc(=O)[nH]o1	1%&0%
40	NC(=O)COc1c(F)cc(SCCNS(=O)(=O)c2ccccc2)cc1F	9%
41	CC(C)(C)OC=O	-16%
42	CN(c1ccccc1C(=O)Nc1ccc2c(c1)OCO2)S(C)(=O)=O	-5%
43	O=C(NC1CCCCC1)N1CCN(C2CCCCC2)CC1	88%
44	Nc1nc2n(n1)C(c1ccco1)CC(c1ccc(Cl)cc1)N2 (centres undefined)	44%
45	CC1CN(C(=O)c2ccccc2C(=O)c2ncc[nH]2)CC(C)O1 (centres undefined)	0%
46	COC(=O)[C@H](C)NC(=O)NC1CCCc2ccccc21 (some centres undefined)	0%
47	CCOC(=O)N1CCN(C(=O)Cn2nc(C)c3sc4ccccc4c3c2=O)CC1	86%
48	O=C1c2ccccc2C(=O)N1OCc1ccccc1	-9%
49	Nc1nnc(SCC(=O)Nc2ccc(F)c(Cl)c2)n1-c1ccccc1	11%
50	CCC(=O)NCCCCNC(=O)CC	-7%

(further entries)
No.	Molecule	AmpC nodet inh
51	COc1ccc(C(C)=O)cc1CSc1nnc(C)s1	18%
52	COc1ccc(N(CC(=O)Nc2ccc(C)cn2)S(=O)(=O)c2c(C)noc2C)cc1	7%
53	COc1cc(S(=O)(=O)N2CCC(O)(c3cccc(C(F)(F)F)c3)CC2)ccc1-n1cnnn1	21%
54	CCCCn1c2c(c(=N)c3c1CCC3)CCC2	-6%
55	COc1ccc(CCC(=O)N2c3ccccc3CC2C)cc1 (centres undefined)	22%
56	O=C(CCC(=O)N1CCN(C2CCCC2)CC1)Nc1nnc(C(F)(F)F)s1	37%
57	O=C(CSc1nc2ccccc2c2ccccc12)c1ccccc1	3%[5.75 µM]
58	C=C(C)C(=O)OCCCCCCCCCC	5%
59	CCOc1ccc(-c2nn3c(-c4ccc(F)cc4)nnc3s2)cc1	20%
60	O=c1c(-c2cc(F)cc(F)c2)nc2cncnc2n1Cc1ccccc1	8%
61	COc1ccc2[nH]c3c(=O)n(CCCCC(=O)N4CCC(C(N)=O)CC4)c(=S)[nH]c3c2c1	0%
62	N[C@H](Cc1ccc(F)cc1)C(=O)O	1%
63	CSc1ncc(Cl)c(C(=O)Nc2ccc(S(=O)(=O)N3CCOCC3)cc2)n1	36%
64	CCOC(=O)C(C(=O)OCC)C1N=C(N)N=C2Oc3ccccc3N21 (centres undefined)	-7%
65	O=c1[nH]c(=O)n(CCc2ccc(F)cc2)c(O)c1C=NCCCN1CCOCC1	19%
66	CCOc1ccccc1C(=O)NC(C(=O)Nc1ccccc1N1CCOCC1)C(C)C (centres undefined)	90%
67	CCOC(=O)COc1cccc2c(=O)n(CC(=O)N3CCN(C(=O)OCC)CC3)ccc12	-5%
68	O=c1c(C/C=C/c2ccccc2)c(O)nc2n1CCCS2	-8%
69	CN(C)/N=N/c1nc[nH]c1C(N)=O	-14%
70	CC(C)OC(=O)c1cccc(C(=O)OCc2ccco2)n1	-1%
71	COCCN(CC(=O)Nc1ccc(F)cc1)S(=O)(=O)c1ccc(S(=O)(=O)N2CCCC2)cc1	10%
72	CCc1cc2cccc(C)c2nc1SCC(=O)N1CCN(C(=O)c2ccco2)CC1	134%
73	Cn1nccc1/C=C(/C#N)S(=O)(=O)c1ccccc1	6%
74	O=S(=O)(N1CCCCC1)n1nnc2ccccc21	-5%
75	O=C1c2cccnc2C(=O)N1Cc1ccc(F)cc1	3%
76	COc1cc(OC)c(NC(=O)c2ccc(Br)o2)cc1Cl	7%
77	Cc1nnc2n1NC(c1ccc(Cl)cc1)C(C(=O)N1CCC(C)CC1)S2 (centres undefined)	19%
78	O=C(NCc1nc2ccccc2[nH]1)c1cccs1	-4%
79	CC(=O)OCC(OC(C)=O)C(OC(C)=O)C(OC(C)=O)C(=O)Nc1ccc(C)cc1C (centres undefined)	16%
80	Clc1ccc(CN2C3=NCCN3c3ccccc32)cc1	12%
81	CCn1c(Cc2ccccc2)nnc1SCC(=O)OC(C)C	18%
82	Cc1cc(O)ccc1Nc1nc2ccccc2nc1Nc1ccc(O)cc1C	13µM*
83	Cc1cc2oc(C(=O)NC3CCS(=O)(=O)C3)c(C)c2cc1C (centres undefined)	52%
84	CSc1ccc(NC(=O)Nc2cc(C)ccn2)cc1	-4%[5.75 µM]
85	O=C(NCc1ccc(F)cc1)c1cc(-c2ccco2)on1	-14%
86	Cc1nn(Cc2ccccc2Cl)c(C)c1NC(=O)C1C2CCC(O2)C1C(=O)O (centres undefined)	0%
87	OCCN1CCN(CCCN2c3ccccc3Sc3ccc(C(F)(F)F)cc32)CC1	78%[12.8 µM]
88	CCc1nc(SCC(=O)Nc2nccs2)c2oc3ccccc3c2n1	27%
89	CCCCNC(=O)CSc1nnc(-c2ccco2)n1C	3%
90	CN(CC(=O)NCCCN1CCOCC1)S(=O)(=O)c1ccc(Br)cc1	4%
91	ClC=C(Cl)Cl	-6%
92	C=CCn1c(N2CCCCCC2)nc2c1c(=O)[nH]c(=O)n2C	2%
93	CC(=O)c1c(C)[nH]c(C(=O)OC2CCCCC2=O)c1C (centres undefined)	-12%
94	CNCCCCOc1ccccc1Cc1ccccc1	55%
95	CC(NC(=O)c1nn(C)c(=O)c2ccccc12)c1ccccc1 (centres undefined)	16%
96	O=C1CCC/C1=c1\s/c(=C\c2cccnc2)c(=O)n1-c1ccccc1	71%
97	CC1(C)CC(=O)C2=C(C1)NC(Nc1nc3ccccc3o1)=NC21CCCCC1	-9%
98	COCCCNS(=O)(=O)c1ccccc1	5%
99	COc1ccc(-c2nnc(SC(C)C(=O)Nc3cccc(Cl)c3)o2)cc1 (centres undefined)	14%
100	COc1cc(C)c(S(=O)(=O)N2CCOCC2)cc1C(C)C	34%

(further entries)
No.	Molecule	AmpC nodet inh
101	O=C(O)Cn1c(-c2cscn2)nc2ccccc21	-8%
102	Cc1ccc(Cn2c(CN3CCOCC3)nc3c2c(=O)n(C)c(=O)n3C)cc1	84%
103	CCCCOc1cc(C[C@@H]2CNC(=O)N2)ccc1OC	24%&-9%
104	COc1cc2ccccc2cc1C(=O)Nc1ccccc1N1CCN(S(C)(=O)=O)CC1	21%
105	CCCCCn1c(=N)n(CC(O)COc2ccccc2OC)c2ccccc21 (centres undefined)	8%
106	O=C(Nc1ccccc1)OCCOc1ccccc1	-13%
107	CC1CCCN(C(C(=O)Nc2ccc3c(c2)OCO3)c2ccccc2)C1 (centres undefined)	10%
108	O=C(CN(CC1CCCO1)C(=O)CCC(=O)Nc1ccccn1)NCC1CCCO1 (centres undefined)	2%
109	COc1cc2[nH]c(=O)n(-c3ccccc3)c(=O)c2cc1OC	-4%
110	Nc1cc(=O)[nH]c(SCc2nnc(-c3ccccc3)o2)n1	-5%
111	CCOC(=O)CSc1nc2ccsc2c(=O)n1C1CCN(C(=O)OCC)CC1	68%
112	Cc1ccc(C(C(=O)NCc2ccco2)N(C(=O)Cn2nnc3ccccc32)c2ccccc2)o1 (centres undefined)	62%
113	CCCCCCn1c(=O)c(-c2nc3ccccc3c(=O)[nH]2)c(O)c2ccccc21	-13%
114	CN(Cc1cccc(F)c1)C(=O)c1ccc(S(=O)(=O)C(F)F)cc1	0%
115	Nc1ccccc1SCc1csc(-c2ccc(Cl)cc2)n1	1%[5.75 µM]
116	COc1ccc(OC)c(NC(=O)C2CC(=O)N(c3ccccc3)C2)c1 (centres undefined)	20%
117	CC1(C)CC(NC(=O)c2ccccc2Cl)CC(C)(C)N1	-9%
118	COc1cc2c3c(c1)C1(C(=O)N3C(C)(C)C=C2C)C(C#N)=C(N)Oc2cc(C)oc(=O)c21 (centres undefined)	63%
119	O=C(c1ccco1)N1CCN(C(=O)C(Cc2ccccc2)NS(=O)(=O)c2cccs2)CC1 (centres undefined)	25%
120	COC(=O)c1cccc(NC(=O)NC2CCCN2S(=O)(=O)c2ccc(Cl)cc2)c1 (centres undefined)	-19%
121	O=C(CSc1c[nH]c2ccccc12)N1CCOCC1	-3%
122	Cc1nn(CC(=O)Nc2ccc(C(=O)N3CCCCC3)cc2)c(=O)c2ccccc12	36%
123	COc1ccccc1NC(=O)CSc1nnc(COc2ccc(Cl)cc2)n1Cc1ccco1	38%
124	COCCN1C=C(C(=O)OC)C(c2cc3c(cc2Br)OCO3)C(C(=O)OC)=C1	85%
125	CC(C)NC(=O)[C@@H]1C[C@@]1(C)[C@@H](NC(=O)OCc1ccccc1)c1ccccc1	58%
126	C=CCc1ccccc1OCC(O)CNC (centres undefined)	28%
127	CCOC(=O)C1=C(C)NC(=O)NC1c1c(OCC(=O)N2CCCCC2)ccc2ccccc12 (centres undefined)	107%
128	CCOC(=O)N1CCN(C(=O)CCC(=O)N2CCOc3ccc(C)cc32)CC1	44%
129	Cc1ccc(S(=O)(=O)N(C)Cc2ccc(-c3nnco3)cc2)cc1	17%
130	CC(CN1CCOCC1)OC(=O)COc1ccc(F)cc1 (centres undefined)	7%
131	Cc1ccc(C(=O)CNc2nc3c(c(=O)[nH]c(=O)n3C)n2Cc2ccccc2)cc1	76%

Of the compounds above, these contain two or more sulfur atoms:
No.	Molecule	AmpC nodet inh
20	O=C(C1CCN(S(=O)(=O)c2cccc3nsnc23)CC1)N1CCn2c1nc1ccccc12	69%
30	COc1cc(C2c3sc(=O)[nH]c3SC3C4CCC(C4)C23)ccc1O (centres undefined)	?
40	NC(=O)COc1c(F)cc(SCCNS(=O)(=O)c2ccccc2)cc1F	9%
51	COc1ccc(C(C)=O)cc1CSc1nnc(C)s1	18%
63	CSc1ncc(Cl)c(C(=O)Nc2ccc(S(=O)(=O)N3CCOCC3)cc2)n1	36%
71	COCCN(CC(=O)Nc1ccc(F)cc1)S(=O)(=O)c1ccc(S(=O)(=O)N2CCCC2)cc1	10%
88	CCc1nc(SCC(=O)Nc2nccs2)c2oc3ccccc3c2n1	27%
111	CCOC(=O)CSc1nc2ccsc2c(=O)n1C1CCN(C(=O)OCC)CC1	68%
115	Nc1ccccc1SCc1csc(-c2ccc(Cl)cc2)n1	1%[5.75 µM]
119	O=C(c1ccco1)N1CCN(C(=O)C(Cc2ccccc2)NS(=O)(=O)c2cccs2)CC1 (centres undefined)	25%
